From PubChem BioAssay
Bead autofluor: counter-screen for toxin protease inhibitors: compound fluorescence; compound autofluorescence counterscreen, microsphere flow cytometry; active compounds read high; fluorescence intensity (no concentration beside the values); 360,000 tested, 3.1% active;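 active means at least 3 SD above the mean of all compounds, about 16000 in these data; inconclusive means too few beads counted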;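 further: 100 nL of 1 mM stock went into each well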
BJeLR viability: kills HRASV12-expressing BJeLR cells; inhibition, % (no concentration beside the values); BJeLR (HRASV12) viability, CellTiter-Glo ATP luminescence, 48 h; reference of the scale not given here; 300,000 tested, 0.17% active;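 active means replicate mean above 50%; inconclusive means above 50% but judged a plate artefact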;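 further: 50 nL library stock added to about 25 µL; numbers are from one replicate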
Sa ugtP lethal: kills S. aureus RN4220 lacking UgtP; growth inhibition, % (concentration not given with the values); 330,000 tested, 0.54% active; S. aureus RN4220 ugtP deletion, OD600 growth, 16 h; some inactives read as strong as hits;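 active means z-score under -3 and OD600 up to 0.15 on both plates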;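 further: plate controls were untreated wells for no effect and antibiotic for full effect; wells of about 80 µL received 100 nL stock; the first replicate is given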
Sa RN4220 lethal: S. aureus RN4220 growth inhibition | OD600, 16 h | inhibition, % (test concentration not listed) | 330,000 tested, 0.33% active | AID 1259311;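 active means z-score of -3 or lower and OD600 up to 0.18 on both plates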;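 further: plate controls were untreated cells for no effect and reference antibiotic for full effect; stock transfer was 100 nL into about 80 µL; one replicate is shown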
Mtb hypoxia rep: reduces hypoxia-regulated biosensor signal in M. tuberculosis; 300,000 tested, 0.1% active; M. tuberculosis hypoxia-regulated fluorescent reporter, fluorescence; fluorescence inhibition, % (concentration not given with the values); AID 1159583;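 active means 35 to 45% if threefold the growth effect, above 45% if 1.5-fold the growth effect; inactive means the rest, general growth blockers included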;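 further: wells of about 50 µL received 100 nL stock; 0% = vehicle wells and 100% = reference inhibitor wells; whole bacteria with a GFP reporter of the hypoxia response; strong numbers were not always called active; many hits fall short of the cut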
PrP 5UTR inh: suppresses PrP 5' UTR mRNA reporter expression. cell-based PrP 5' UTR mRNA reporter, plate reader. inhibition, % (concentration not given with the values). 340,000 tested, 0.35% active. AID 488862;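 active means every replicate at 50% or more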;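 further: 0 = median of the neutral control wells; tested in H4 reporter cells; numbers are from one replicate; inactives centre near -14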
Mtb hypoxia rep growth: further read-out of Mtb hypoxia rep, marked with its call; growth inhibition, %; measured here: M. tuberculosis growth (absorbance);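 0% = vehicle and 100% = reference antibiotic; read after six days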
Starred values were filed as active, the others as inactive; ? = inconclusive; · = not tested or not shown.

SMILES	Bead autofluor	BJeLR viability	Sa ugtP lethal	Sa RN4220 lethal	Mtb hypoxia rep	Mtb hypoxia rep growth	PrP 5UTR inh
COc1cc(C(=O)Nc2sc(C)c(C)c2C(=O)O)cc(OC)c1OC	3607	-6	-4	5.7	5	-9	-2
CN(C)/C=N/c1sc2c(c1C#N)CCC2	10157	6	·	·	·	·	-22
Cc1ccc(NC(=O)O/N=C/c2ccc(Br)cc2)cc1	3524	-7	·	·	·	·	-21
CC(C)(C)C(=O)Nc1nc2c(s1)COc1ccccc1-2	5618	13	-7	-9.7	2	8	-31
COc1ccc(N2CCN(C(=O)CCCSc3nc4ccccc4[nH]3)CC2)cc1	3605	0	9	0.1	·	·	-1
COC(=O)C(C)Sc1nnc(Cc2cc(=O)[nH]c(=O)[nH]2)n1-c1cccc(OC)c1 (stereo unspecified)	6217	-1	3	2.7	·	·	-11
COC(=O)[C@H](CC(C)C)NS(=O)(=O)c1ccccc1	4000	6	·	·	·	·	-14
COc1cc([C@H]2[C@@H]3CCCC[C@]3(O)CCN2Cc2ccccc2F)ccc1O	10329	-4	-1	4.1	7	3	-28
CCn1c(=O)c2c(nc3n2CCS3)n(C)c1=O	3837	5	2	-1.7	·	·	-12
CN(C)Cc1c(O)ccc2occ(C(=O)c3ccccc3)c12	22642*	1	1	1.4	1	0	-11
O=C1NC(c2ccccc2)=C(c2ccccc2)C1=O	2383	·	2	3.5	-32	-6	-3
CCCOc1ncnc2c1[nH]c1ccccc12	8389	1	-5	1.5	-2	3	-49
O=C(NNc1ccc(Cl)cc1)c1sccc1Cl	4811	3	-5	0.5	5	4	-6
CNc1ccc(/C=C(\C#N)C(=O)Nc2ccccn2)cc1[N+](=O)[O-]	5365	-14	1	3.7	11	-8	2
CCN1c2nc3ccccn3c(=O)c2CC2(C(=O)N(C)C(=O)N(C)C2=O)C1C (stereo unspecified)	9702	2	10	5.5	6	7	-24
CCCCCOC(=O)C1C2C=C[C@]3(CN(CCCOC)C(=O)C13)O2 (stereo partly specified)	·	·	-5	4.9	8	0	·
CC(C)C[C@@H]1NC(=O)N(CCCn2ccnc2)C1=O	3050	-21	1	2.4	2	-3	3
O=c1c2c(n3nnnc3n1Cc1ccccc1)-c1ccccc1CC21CCCC1	4004	-10	-5	0.5	6	4	6
CCOc1ccccc1C=NNc1nc2ccccc2o1	·	·	7	-2.1	2	3	·
COc1ccc(NC(=O)CN(C)C(=O)CN2C(=O)NC3(CCCC3)C2=O)cc1	?	4	·	·	·	·	-4
O=C1CS/C(=N\N=C\c2ccco2)N1c1ccccc1	5976	1	·	·	·	·	-21
CCCn1cc(SCC(=O)NC2CCCC2)c2ccccc21	5182	3	-2	2.9	-3	0	-12
CCN(c1ccccc1)S(=O)(=O)c1ccc(Cl)c(C(=O)NCc2ccco2)c1	3823	·	-6	-4.9	-12	2	-13
CCN(CC)CC(O)COC(c1ccccc1)c1ccccc1 (stereo unspecified)	4780	-6	-2	-0.7	-2	-5	-18
CN(C(=O)CSc1nnc(-c2ccco2)n1N)C1CCCCC1	4621	-1	7	2.5	-5	1	-26
COc1ccccc1C(=O)NCCC(=O)NCC(c1ccco1)N1CCCC1 (stereo unspecified)	4379	·	5	-0.9	12	6	-14
CCOC(=O)C(Cc1ccc(NC(=O)/C(=C/c2ccc(OC(C)=O)cc2)NC(C)=O)cc1)N1C(=O)c2ccccc2C1=O (stereo unspecified)	9341	-11	-8	-2.8	0	10	-28
O=C(NCCc1ccccc1)c1ccccc1F	2007	4	2	2.6	13	21	-46
CC(C)c1ccc(N(CC(=O)NCCc2ccccc2)C(=O)c2csnn2)cc1	6331	9	-5	1.1	-2	-5	-60
CS(=O)(=O)N1Cc2ccccc2CC1C(=O)Nc1ccccc1C(N)=O (stereo unspecified)	3974	4	-1	5.0	-1	5	-2
C=C1CCN(C(C)C(=O)OCc2ccc(C)cc2)S(=O)(=O)c2ccccc21 (stereo unspecified)	·	·	11	11	20	7	·
Cc1nc(CC(=NNc2ccccc2)c2ccc(O)cc2O)cs1	·	·	-3	2.4	6	12	·
Cc1ccc([C@@H]2CC=C(C(=O)O)[C@H](c3ccc(F)cc3)N2S(=O)(=O)c2ccccc2C)cc1	3920	·	-2	11	-6	7	-5
C=CCn1c(NC(=O)CC)c(C(=O)OCC)sc1=S	8924	-2	5	0.2	-2	-3	-6
CC1CN(C(C)CO)C(=O)Cc2cc(NC(=O)CCC(F)(F)F)ccc2OC1CN(C)C(=O)NC1CCCCC1 (stereo unspecified)	·	·	11	6.4	7	10	·
CCOC(=O)Cc1csc(NC(=O)CN2CCN(CC)CC2)n1	3138	4	12	2.5	6	-6	-16
COc1cccc2[nH]c(C(=O)NCc3ccccc3)cc12	4207	11	6	1.8	12	6	-24
CCN(CC)c1nc2ccccc2c(N)c1-c1ccccc1	2390	2	-15	-2.7	·	·	-21
OCC1(CO)CC2(C1)CC(CO)(CO)C2	3714	·	4	5.3	7	-3	-13
Cc1c(NC(=O)C(=O)C=C(O)c2ccccc2)c(=O)n(-c2ccccc2)n1C	·	·	8	-0.8	6	-4	·

2 compounds picked at random from the list so far, as already listed:
SMILES	Bead autofluor	BJeLR viability	Sa ugtP lethal	Sa RN4220 lethal	Mtb hypoxia rep	Mtb hypoxia rep growth	PrP 5UTR inh
C=C1CCN(C(C)C(=O)OCc2ccc(C)cc2)S(=O)(=O)c2ccccc21 (stereo unspecified)	·	·	11	11	20	7	·
COc1ccccc1C(=O)NCCC(=O)NCC(c1ccco1)N1CCCC1 (stereo unspecified)	4379	·	5	-0.9	12	6	-14

The listing picks up with the three entries that preceded the break.
SMILES	Bead autofluor	BJeLR viability	Sa ugtP lethal	Sa RN4220 lethal	Mtb hypoxia rep	Mtb hypoxia rep growth	PrP 5UTR inh
CCN(CC)c1nc2ccccc2c(N)c1-c1ccccc1	2390	2	-15	-2.7	·	·	-21
OCC1(CO)CC2(C1)CC(CO)(CO)C2	3714	·	4	5.3	7	-3	-13
Cc1c(NC(=O)C(=O)C=C(O)c2ccccc2)c(=O)n(-c2ccccc2)n1C	·	·	8	-0.8	6	-4	·
Cc1cccc(C2C3C(=O)N(Cc4ccccc4)C(=O)C3[C@]3(C)C(=O)N(c4cccc(Cl)c4)C(=O)N23)c1 (stereo partly specified)	·	·	6	5.4	-3	5	·
COc1ccc(CC2(CO)CCN(Cc3cnn(C)c3)CC2)cc1	3689	9	9	0.4	4	4	-24
Cc1cccc(C)c1Nc1ncnc(N)c1[N+](=O)[O-]	2481	-1	0	2.7	-5	0	-7
Cc1ccc(C(=O)Nc2ccc(N3CCOCC3)cc2)cc1S(=O)(=O)N1CCCCC1	8721	·	0	2.5	9	2	-15
CCC(Cc1ccccc1)NS(=O)(=O)c1ccc2c(c1)NC(=O)CO2 (stereo unspecified)	5515	2	-2	5.9	5	3	-12
COc1ccc(C(=O)Nc2nnc(SCC(=O)NC3CC3)s2)cc1	3637	4	-4	1.2	-9	0	16
CCc1cccc2c(C(=O)COC(=O)c3ccccc3)c[nH]c12	2332	12	6	3.1	3	-1	-116
O=C(O)CC1(CC(=O)Nc2cccc(C(F)(F)F)c2)CCCC1	5074	-5	-1	3.9	1	16	-21
COc1ccccc1C(=O)N/N=C(\C)CC(=O)Nc1ccc(Cl)cn1	5595	5	·	·	·	·	-32
Cc1cc(C)cc(Nc2ncc3c(n2)CCCC3=O)c1	2102	2	-7	-0.2	·	·	-5
CSc1nsc(SCC(=O)Nc2nc3ccccc3s2)n1	2238	-2	-10	3.2	15	-1	-14
CC(=Nc1cccc(O)c1)c1sc2ccccc2c1O	4469	-2	3	2.1	3	6	-136
O=C1OCc2ccc(NS(=O)(=O)c3ccc(C(F)(F)F)cc3)cc21	4295	-1	2	8.7	5	0	-20
CN(C)CCCN(C(=O)CCS(=O)(=O)c1ccccc1)c1nc2cc3c(cc2s1)OCO3	6403	22	2	0.8	5	10	11
COc1ccc(C(=O)NC2=C(C#N)CCC2)cc1OC	13666	-5	-1	2.7	6	2	-12
O=C(c1ccco1)N(CC1CCCO1)c1nc(-c2ccccc2)cs1 (stereo unspecified)	5658	1	86*	-6.7	-5	0	5
CN(Cc1ccco1)C(=O)c1cc2c(s1)-c1ccc(Cl)cc1S(=O)(=O)C2	6239	1	8	1.8	16	4	-7
Cc1cc(Cl)ccc1NC(=O)c1ccc2c(c1)CCN2S(C)(=O)=O	3877	8	3	-1.0	-6	13	-13
COc1cc(/C=C/C(=O)N2CCCC2)cc(OC)c1OC	2137	-8	·	·	·	·	-10
Cn1cnc(S(=O)(=O)N2CCc3ccccc32)c1	4754	6	11	-1.9	·	·	-25
CCOC(=O)CSc1ccc2ccccc2n1	3897	-8	0	2.2	4	0	-10
CCOC(=O)c1ccc(-c2cccc(C(F)(F)F)c2)nc1C	22705*	12	2	7.5	-1	5	-31
NS(=O)(=O)c1cc(C(=O)O)cc(N2CCCC2)c1Oc1ccccc1	4574	·	3	1.6	2	7	-9
O=C(NCc1ccc(F)cc1)c1ccc(CS(=O)Cc2ccccc2Cl)o1 (stereo unspecified)	4889	3	5	-2.3	-3	-9	-17
Cc1ccc(SCCNS(C)(=O)=O)cc1	3517	-5	1	-4.9	·	·	-18
Cc1ccc(S(=O)(=O)CCC(=O)OCC(=O)NCC(=O)Nc2cccc(C)c2C)cc1	6062	-3	7	0.1	11	10	12
CN1CCCN(C(=O)c2ccccc2Cl)CC1	3991	7	0	0.5	-1	8	-6
Cc1cccc(NC(=O)CNC(=O)COc2cccnc2[N+](=O)[O-])c1C	8940	·	1	-1.5	-11	1	0
O=C1C2CCCN2C(c2cccc(F)c2)N1c1cccc(Cl)c1 (stereo unspecified)	6015	-8	8	3.7	·	·	-9
O=C(CSc1nc(O)c(Cc2ccccc2)c(=O)[nH]1)N1CCOCC1	4002	-7	1	4.2	6	1	8
COCCN(CC(=O)Nc1cccc(C)c1C)C(=O)c1ccc(-n2cccn2)cc1	4096	·	-4	3.6	22	9	-9
COc1cc(NS(=O)(=O)c2ccc(N)cc2)nc(OC)n1	5353	-16	27	4.2	4	17	0
NS(=O)(=O)c1ccc(CNC(=O)c2cc(-c3cccnc3)nc3ccc(Cl)cc23)cc1	6299	-12	-4	-4.0	3	7	-19
CCOC(=O)c1c(C)c(-c2ccccc2)n(CC(=O)NCCCN(CC)CC)c1C	2632	-3	4	4.5	3	9	-6
Cc1nc2sc3c(c2c(=O)o1)CCCC3	2481	-7	-20	0.7	·	·	-27
O=C(COC(=O)c1ccc2c(=O)n3c(nc2c1)CCC3)Nc1ccccc1F	2358	3	8	-1.2	-3	0	-22
O=C(NN=Cc1ccoc1)c1ccc(Cl)cc1	·	·	2	2.8	8	16	·
COC(=O)c1ccc2nc(NC(=O)C(C)(C)C)sc2c1	3212	4	-26	-1.0	7	-4	35
COc1ccc2[nH]c(C(=O)Nc3cccc(C)n3)cc2c1	3916	2	-8	-2.1	8	2	·
O=C(NNC(=O)c1cc2cc(OC(F)(F)F)ccc2[nH]1)c1cccc(C(F)(F)F)c1	3929	5	-4	-5.3	4	-8	0
O=C(CSc1ncnc2ccccc12)NC1CCS(=O)(=O)C1 (stereo unspecified)	5674	·	0	3.7	1	0	-15
O=C(Cn1nc(C(F)F)cc1C1CC1)N1CCCC1	5722	-6	3	5.2	6	3	-21
COc1ccc(NC(=O)c2cc(S(=O)(=O)N3CCS(=O)(=O)CC3)ccc2Cl)cc1	4322	-13	1	12	·	·	-18
Cc1c(N2C(=O)CSC2=NN=Cc2ccc(Cl)cc2)c(=O)n(-c2ccccc2)n1C	·	·	19	1.4	6	5	·
COc1cc(C)ccc1OCC(=O)NCC1CCCO1 (stereo unspecified)	3832	·	5	5.0	13	8	-28
Cc1cccc(N2C(=O)NC(=O)/C(=C\c3cc(C)n(-c4sc5c(c4C#N)CCCC5)c3C)C2=O)c1C	3042	1	12	-3.5	10	9	-11
COC(=O)CN(c1nc(C)c(Br)c(OC)n1)S(=O)(=O)c1ccc(C)cc1	4475	-1	-3	-0.7	·	·	-15
OC1CCCN(CC(O)COC(c2ccccc2)c2ccccc2)C1 (stereo unspecified)	4312	-6	7	5.0	11	6	-9
CN(C(=O)c1cccc(COc2ccc(Cl)cc2Cl)c1)c1ccccc1	1933	-11	25	0.5	-5	0	-48
